Screening results as filed in PubChem BioAssay.
VDR inhibitor: Inhibitors of the vitamin D receptor (VDR): qHTS; Potency, µM, inactives show max response, negative = inhibition, usual class: inhibitors; Vitamin D3 receptor (Homo sapiens), P11473; VDR-SRC2-3 peptide fluorescence polarization, 2 h; 400,000 tested, 0.93% active; active = well fitted inhibition curve with a large enough effect; inconclusive = small, poorly fitted or top-dose-only effect, or another doubt; inactive = no such curve, though single readings can be large or run the other way; also: series mostly up to about 120 µM
Target sequence (P11473 whole entry, looked up): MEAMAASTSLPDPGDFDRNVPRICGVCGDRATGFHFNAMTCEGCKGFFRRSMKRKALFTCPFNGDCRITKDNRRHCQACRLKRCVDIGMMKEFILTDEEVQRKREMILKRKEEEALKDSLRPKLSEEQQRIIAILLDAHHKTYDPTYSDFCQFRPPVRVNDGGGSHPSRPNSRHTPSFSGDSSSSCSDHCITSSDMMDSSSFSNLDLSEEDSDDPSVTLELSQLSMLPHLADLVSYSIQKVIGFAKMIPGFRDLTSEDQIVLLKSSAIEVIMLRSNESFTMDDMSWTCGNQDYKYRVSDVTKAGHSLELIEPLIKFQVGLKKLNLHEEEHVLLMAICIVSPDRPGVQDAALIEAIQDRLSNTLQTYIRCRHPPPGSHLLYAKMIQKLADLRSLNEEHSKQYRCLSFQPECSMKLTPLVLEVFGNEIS
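The screen uses fluorescence polarization to detect compounds that interfere with recruitment of the SRC2-3 coactivator peptide to VDR; plates are read after 2 h at room temperature.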
Active calls of the source: *; ? = inconclusive; & = joins results of further samples; [ ] = another dose, or the depositor's remark. % is scaled to controls: 0 for no effect and ±100 for the full control effect; potency is read from the fitted curve at half-maximal effect.

| Molecule | VDR inhibitor |
| --- | --- |
| CCOc1ccc(CNC(=O)CSc2c3c(nc4ccc(Cl)cc24)CCCC3)cc1 | 1% |
| Clc1nc2ccccc2cc1/C=N/Nc1nc2ccccc2[nH]1 | -19% |
| C=C1CCN(c2ccc(C(=O)NCc3ccc(OC)cc3)cc2[N+](=O)[O-])CC1 | -24% |
| C/C(N)=C(/C#N)C(=O)COC(=O)c1cc(C)n(-c2ccc(F)cc2)c1C | -1%&7% |
| COc1ccc(NS(=O)(=O)c2cccc(C(=O)NCC(c3ccco3)N(C)C)c2)cc1 (stereo not given) | -14% |
| CC(CCOC1=NS(=O)(=O)c2ccccc21)NC(=O)C(=O)Nc1ccccc1 (stereo not given) | -7% |
| COc1ccc(-n2c3c(c(=O)[nH]c2=O)C(NC(=O)c2ccncc2)(C(F)(F)F)C(=O)N3)cc1 (stereo not given) | -8% |
| Cc1cccc(CSc2nnc(-c3ccccn3)n2N)c1 | 1% |

A different layout for 7 compounds above.
| VDR inhibitor | smiles |
| --- | --- |
| -1%&7% | C/C(N)=C(/C#N)C(=O)COC(=O)c1cc(C)n(-c2ccc(F)cc2)c1C |
| -19% | Clc1nc2ccccc2cc1/C=N/Nc1nc2ccccc2[nH]1 |
| -24% | C=C1CCN(c2ccc(C(=O)NCc3ccc(OC)cc3)cc2[N+](=O)[O-])CC1 |
| -7% | CC(CCOC1=NS(=O)(=O)c2ccccc21)NC(=O)C(=O)Nc1ccccc1 (stereo not given) |
| -8% | COc1ccc(-n2c3c(c(=O)[nH]c2=O)C(NC(=O)c2ccncc2)(C(F)(F)F)C(=O)N3)cc1 (stereo not given) |
| 1% | Cc1cccc(CSc2nnc(-c3ccccn3)n2N)c1 |
| -14% | COc1ccc(NS(=O)(=O)c2cccc(C(=O)NCC(c3ccco3)N(C)C)c2)cc1 (stereo not given) |

Continued:
| Molecule | VDR inhibitor |
| --- | --- |
| Cc1ccc(C(=O)NNC(=O)c2ccc(S(=O)(=O)N3CCOCC3)cc2)cc1 | 1% |
| Cc1ccc(NC(=O)COC(=O)c2cccc(C)c2[N+](=O)[O-])cc1S(=O)(=O)N1CCCCC1 | 23% |
| Cc1ccc(NC(=O)CSCC#N)cc1Cl | -12% |
| COc1cccc(NC(=O)c2sc(NC(=O)c3ccncc3)nc2C)c1 | -16% |
| COc1cc(NC(=S)N2CCN(C/C=C/c3ccccc3)CC2)cc(OC)c1 | -8% |
| Cc1cccc(N2CCN(C(=O)c3oc(=O)c4ccccc4c3-c3ccccc3)CC2)c1C | -3% |
| CCC(C)NC(=O)c1cc2c(=O)[nH]c3ccc(C)cc3c2s1 (stereo not given) | -14% |
| C1CCN=C(Nc2nc3c(s2)CCCC3)CC1 | -6% |
| CC1(C)COC(=S)N1CCC#N | -30% |
| CCOCCCNC(=S)N1CCCC(c2nc3ccc(C)cc3[nH]2)C1 (stereo not given) | -10% |
| Cc1cc(C)n(CC(=O)NC2CCCc3c2cnn3-c2ccccc2F)n1 (stereo not given) | -7% |
| COc1ccc(Nc2nc(N)c([N+](=O)[O-])c(NCc3ccccc3)n2)cc1 | -3% |
| Cc1ccccc1C(=O)Nc1ccc(C(=O)N/N=C/c2ccc(O)cc2)cc1 | -1% |
| O=S(=O)(c1ccccc1)N1CCC2(CC1)CN(c1ccccn1)C2 | -14% |
| CC(C)(C)OC(=O)N1CCC[C@H]1c1nnc(SCc2ccc(Cl)cc2Cl)o1 | 12% |
| CCC(=O)NC(=S)Nc1ccc(NC(=O)COc2ccccc2)cc1 | -4% |
| Cn1c(=O)c2c(ncn2CC(=O)N(Cc2ccccc2)c2ccccn2)n(C)c1=O | -7% |
| CC[C@@]1([C@@H]2O[C@@H]([C@H]3O[C@@](O)(CO)[C@H](C)C[C@@H]3C)C[C@@H]2C)CC[C@@H]([C@]2(C)CCC3(C[C@H](O)[C@@H](C)[C@@H]([C@@H](C)[C@@H](OC)[C@H](C)C(=O)O)O3)O2)O1 (stereo not given in full) | 0% |
| O=C(Cn1cnc2c(OCc3ccccc3)ncnc21)NCC1CCCO1 (stereo not given) | 14% |
| CCCn1c(NC(=O)c2ccccc2Br)nc2ccccc21 | -21% |
| O=C(CCNC(=O)N1CCn2c1nc1ccccc12)NCc1ccccc1Cl | -11% |
| CC(=NCCCn1ccnc1)c1c(-c2ccccc2)[nH]n(-c2nc3ccccc3s2)c1=O | 10% |
| CC(C)c1ccc2c(c1)CCC1C(C)(CN)CCCC21C (stereo not given) | 4% |
| COc1ccc(N(C)C(=O)c2cn(C)c(=O)c3cc(OC)c(OC)cc23)cc1 | -5%&-8% |
| O=C(CSc1nnc(CNC(=O)c2ccco2)o1)Nc1ccc(F)cc1 | 3% |
| O=C(COC(=O)c1ccncc1)Nc1cc(S(=O)(=O)N2CCOCC2)ccc1Cl | 9% |
| Cc1ccc(Nc2nc(-c3ccncc3)cs2)cc1 | 6% |
| CCOC(=O)c1ccc(-c2ccc(/C=C(\C#N)C(=O)Nc3cccc(C)c3)o2)cc1 | -5% |
| Cc1cc(C2(c3ccc(O)c(C)c3)OC(=O)c3ccccc32)ccc1O | -8% |
| C=CCOn1c(=O)c(C)[n+]([O-])c2ccccc21 | 12% |
| Cc1noc(C)c1S(=O)(=O)Nc1cccc(CO)c1 | 4% |
| CCCN1C(=O)/C(=c2\sc3nc(=O)c(Cc4ccc(C)cc4)nn3c2=O)c2ccccc21 | ? |
| O=C(COC(=O)CCOc1ccccc1)NCCc1ccccc1 | -14% |
| COc1ccc(Nc2nc(N3CCCC3)nc(N3CCCC3)n2)c(OC)c1 | -9% |
| Cc1ccc(OCc2ccc(C(=O)N3CCCC3)o2)cc1C | 17% |
| COc1ccc2[nH]cc(CCNc3nc(-c4cccnc4)nc4ccccc34)c2c1 | -15% |
| O=C(N/N=C/c1ccccc1O)c1ccncc1 | -19%&-1% |
| Cc1cc(N2CCOCC2)nc2ccc(NC(=S)N3CCCCC3C)cc12 (stereo not given) | 6% |
| CCN(CC)C(=O)c1sc(NC(=O)c2cccnc2)c(C(=O)OC)c1C | -35% |
| Cc1ccc(NC(=S)NNC(=S)Nc2ccc(C)cc2C)cc1 | 45µM* |
| COc1ccc(N2CCN(C(=O)C(CCSC)N=C3NS(=O)(=O)c4ccccc43)CC2)cc1 (stereo not given) | 16% |
| COc1ccccc1CN1C(=O)[C@@H]2C(CC(N)=O)NC3(C(=O)Nc4c3ccc(Cl)c4C)[C@@H]2C1=O (stereo not given in full) | -13% |
| O=C(/C=C/NCc1cccnc1)c1ccc(-c2ccccc2)cc1 | -10% |
| O=C(CCN1CCN(CCO)CC1)Nc1ccc(OCc2ccccc2)cc1 | 6% |
| COc1ccc2c(c1)CCc1c(C(=O)N3CCOCC3)noc1-2 | -10% |
| CCOc1ccc(N(CC(=O)Nc2ccccc2C(=O)N2CCOCC2)S(=O)(=O)c2ccc(F)cc2)cc1 | -7% |
| Cc1ccc(NC(=O)COC(=O)CCc2nc3ccccc3n2-c2ccccc2)c(C)c1 | ? |
| CCOc1ccccc1/C=C/C(=O)NCC(=O)N1CCC(N(C)C2CCCCC2C)CC1 (stereo not given) | 17% |
| COc1ccc(C(=O)OCC(=O)Nc2ccc3[nH]c(=O)[nH]c3c2)cc1 | -5% |
| CCc1ccccc1N(C(=O)c1cccs1)C1C=CS(=O)(=O)C1 (stereo not given) | -3% |
| CCC(C(=O)NC1CCCC1)N(C(=O)Cn1nnc(-c2ccc(C)o2)n1)c1ccc(OC)c(OC)c1 (stereo not given) | -2% |
| COc1cccc(C(=O)O/N=C(\N)c2ccc([N+](=O)[O-])cc2)c1OC | 27% |
| CN(Cc1ccccc1)c1nc2c(c(=O)[nH]c(=O)n2C)n1C | 18% |
| Cc1ccccc1NC(=O)CCCn1nc(C)c2c(C)n(-c3ccccc3)nc2c1=O | -7% |
| COc1cccc(OCc2ccc(Cl)cc2)c1C#N | 1% |
| OCCN1CCN(c2cc(C(F)(F)F)nc3ccccc23)CC1 | 2% |

Additional records:
| Molecule | VDR inhibitor |
| --- | --- |
| N/C(=N\OC(=O)Cc1ccc(-c2ccccc2)cc1)c1cccnc1 | -16% |
| COc1ccc([C@H]2CC(=O)C=C(c3ccccc3)C2)cc1OC | 1% |
| c1ccc(CCc2nc3ccccc3[nH]2)cc1 | 5% |
| CC(NCc1ccc(S(N)(=O)=O)cc1)C(=O)Nc1cc([N+](=O)[O-])ccc1Cl (stereo not given) | -11% |
| CN=C1SC(C(=O)O)CC(=O)N1C (stereo not given) | 21% |
| CCOC(=O)N/N=C/C=C/c1ccccc1 | -5% |
| Cc1ccc(S(=O)(=O)N2CCN(CC(=O)N3CCOCC3)CC2)cc1 | -11% |
| CC1CCN(S(=O)(=O)c2ccc3nc(N4CCN(c5ccccc5F)CC4)ccc3c2)CC1 | 20% |
| COc1cc(OC)cc(C(=O)NCC(=O)N2CCN(S(=O)(=O)c3ccccc3F)CC2)c1 | -3% |
| N/C(=N\OC(=O)C1CCCCC1)c1ccncc1 | 8% |
| O=C(/C=C/c1ccccc1)C1=C(O)C(=O)N(CCO)C1c1ccc2c(c1)OCO2 (stereo not given) | -4% |
| COc1ccc(S(=O)(=O)N(CC(=O)NCCSc2ccccc2)c2ccc(Cl)cc2)cc1 | -15% |
| Cc1nnc2n1N=C(c1ccc(F)cc1F)CS2 | -8% |
| Cc1noc(C)c1COc1ccc(C(=O)OCC(=O)NC(=O)C2COc3ccccc3O2)cc1 (stereo not given) | -1% |
| Cc1ccc(C(OCC(O)CN2CCCCC2CO)c2ccccc2)cc1 (stereo not given) | 5% |
| COc1ccccc1-c1cc(NC(=O)COc2ccc(C)c(C)c2)n(-c2ccccc2)n1 | 2% |
| COCCCN(C(=O)CSCc1ccc(C)cc1)c1c(N)n(Cc2ccccc2)c(=O)[nH]c1=O | -3% |
| Cc1ccc(SCCC(=O)Nc2ccccc2C(=O)NC2CCCCC2)cc1 | 9% |
| CCOC(=O)c1ccc(NC(=S)N(CCCN2CCN(C)CC2)Cc2cccs2)cc1 | -11% |
| CCOc1ccc(C(=O)OCC(=O)Nc2cccnc2Cl)cc1OCC | 0% |
| CCN(C(=O)COc1cccnc1[N+](=O)[O-])C1CCS(=O)(=O)C1 (stereo not given) | 3% |
| Cc1ccc(-c2nc(CSCC(=O)N3CCOCC3)c(C)o2)cc1 | -1% |
| O=C(O)C1CCN(C(=O)c2ccc3c(c2)OCO3)CC1 | 1% |
| Cn1ncc2c(Nc3cc(Cl)cc(Cl)c3)ncnc21 | -5% |
| COc1ccccc1N1CCN(C(=O)c2ccc(Br)o2)CC1 | -6% |
| O=C(c1ccncc1)c1ccc(Br)cc1 | 1% |
| Cc1cccc(C(=O)O/N=C(\c2ccccc2)c2cccnc2)c1 | 145%[activator] |
| O=C1c2ccccc2C(Nc2ccc3c(c2)OCO3)N1Cc1ccco1 (stereo not given) | -2% |
| CSCC[C@H](NC(=O)[C@H](CC(C)C)N1CCC(NC(=O)[C@@H](NC(=O)[C@H](Cc2ccccc2)NC(=O)[C@H](CO)NC(=O)[C@H](CC(=O)O)NC(=O)[C@@H](N)CCCCN)C(C)C)C1=O)C(N)=O (stereo not given in full) | -5% |
| Cc1ccc(O)c(C(=O)c2cnc3c(c2)c(-c2ccc(F)cc2)c(C#N)c(=O)n3C)c1 | -16% |
| COc1ccc2oc(=N)c(C(=O)NCc3ccccc3)cc2c1 | ? |
| CCOC(=O)c1c(NC(=O)CSc2nnc(-c3ccncc3)n2Cc2ccco2)sc(C(C)=O)c1C | -15% |
| CCCn1ncc(CN2CCC(CO)(CC3CCCCO3)CC2)c1C (stereo not given) | 6% |
| COc1cc(C(=O)Nc2ccc3c(c2)CCN3C(C)=O)cc(OC)c1OC | -11% |
| Cc1noc(C)c1S(=O)(=O)Nc1ccc(C(=O)Nc2ccc(OC(F)(F)F)cc2)cc1 | 19% |
| CCc1cc(=O)oc2cc(C)cc(OCC(=O)NCCCn3ccnc3)c12 | 14% |
| CS(=O)(=O)N(CCC#N)Cc1ccc(C=O)o1 | 11% |
| O=C(O)c1cccc(NS(=O)(=O)c2cc(S(=O)(=O)c3ccc(Cl)cc3)ccc2Cl)c1 | -10% |
| CC(C)(C)NCc1ccccc1OCc1cccs1 | -12% |
| O=C(Cc1cccs1)Nc1nc(-c2cccnc2)cs1 | -6% |
| O=c1cc(C(F)(F)F)[nH]c(=O)n1C1CCCCC1 | -8% |
| Cc1cc(NC(=O)CSc2nnnn2-c2cc(Cl)ccc2C)no1 | 9% |
| COC(=O)C1=C(C(=O)OC)[C@@H]2N(Cc3ccccc3)c3ccccc3[C@@]23C[C@@H](C(=O)OC)N(C(=O)c2ccc(Br)cc2)C3=N1 | -7% |
| O=C(OCC(=O)N1CCCC1=O)C1CCN(S(=O)(=O)c2ccc(Cl)c(C(F)(F)F)c2)CC1 | 2% |
| c1ccc(CCn2nnnc2C(c2cccnc2)N2CCN(c3ccccc3)CC2)cc1 (stereo not given) | -10% |
| c1ccc(SCCOCCN2CCc3ccccc3C2)cc1 | 8% |
| O=C(N=C1SC2CS(=O)(=O)CC2N1c1ccc(Br)cc1Cl)C1CC1 (stereo not given) | 14% |
| Cc1nc2ccc(F)cc2cc1C(=O)Nc1cccc(Cl)c1C | 11% |
| CC1CCCCC1NC(=O)CCNS(=O)(=O)c1cc(Br)cnc1N (stereo not given) | 1% |
| Cn1cccc1C(=O)C(=O)Nc1ccc(Cl)cc1 | -10% |
| Cc1[nH]nc2c1C(c1ccsc1C)C(C#N)=C(N)O2 (stereo not given) | 16% |
| COc1cc2c(=O)c(C(=O)c3ccc(C)c(C)c3)cn(Cc3ccccc3F)c2cc1OC | 0% |
| Cc1ccc2c(c1)N(S(=O)(=O)c1ccc(CN3C(=O)c4cccnc4C3=O)cc1)CCO2 | 13% |
| CCCCN(CC)c1ncnc2c1sc1nc(N3CCOCC3)c3c(c12)CCCC3 | 8% |
| O=C(Oc1ccccc1)N1CCC2(CC1)CN(c1ccccn1)C2 | 2% |

These rows are one share of the data. The share of hits here may be higher or lower than overall.
